Screens (PubChem)
Calb biofilm kill = mixture kills Candida albicans biofilm cells; C. albicans biofilm persisters + clotrimazole, fluorescence viability; primary screen in compound mixtures of four per well; inhibition, % at 7.6 µM; 0.02% of 120,000 active; AID 1242;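 active = inhibition above 30.3% in the primary screen of four-compound pools, then above 30% when the compound was retested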;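 note: compounds exposed to preformed 24 h biofilms for 48 h; the number belongs to the whole pool; some results filed as inactive read as strong as hits; inactives centre near 12; 0% = biofilm with clotrimazole alone and 100% = kill control; retested singly at about 60 µM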
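Test system: C. albicans CAF4-2 wild-type biofilms; buffer or medium: RPMI/MOPS medium, pH 7.0; schedule: 24 h biofilm formation, then 48 h compound exposure, 37 °C; detection: Alamar Blue fluorescence; measure: percent inhibition of biofilm viability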
An asterisk follows results filed as active. An excerpt. The share of hits here may be higher or lower than overall.

SMILES	Calb biofilm kill
Cc1ccc(C)c(-n2cc(CN3CCCN(C=O)CC3)c(-c3ccccc3)n2)c1	13
CCOC(=O)N1CCN(C(=O)c2cn(CC)c3ccc(S(=O)(=O)N4CCCCC4)cc3c2=O)CC1	13
CCN(CC)C(=O)CSc1nc2cc3c(cc2c(=O)n1CCCC(=O)NCCc1ccc(OC)c(OC)c1)OCO3	19
CCCCN(C)C(=O)CCCc1c[nH]c2ccccc12	8
O=C(CNC(=O)/C=C/c1ccccc1)N=Nc1c(O)n(Cc2ccccc2)c2ccccc12	17
CC(C)n1c(O)c(N=NC(=O)C2COc3ccccc3O2)c2ccccc21 (stereo not given)	17
COC(=O)C1=NN(c2ccccc2OC)C2C(=O)N(c3ccccc3OC)C(=O)C12 (stereo not given)	15
COc1cc(S(=O)(=O)n2cnc(C)c2)ccc1Cl	21
COc1cccc2c1OC1(CCN(C(C)C)CC1)N1N=C(c3cccnc3)CC21 (stereo not given)	-35
O=C(Nc1cc(Cl)ccc1Oc1ccccc1)c1ccccc1F	15
Cc1ccccc1NC(=O)C1c2ccccc2Oc2ccccc21	11
CCCC(=O)Nc1nnc(SCC(=O)Nc2ccc3c(c2)OCCO3)s1	-4
Cc1ccc(OCC(=O)N2CCN(S(=O)(=O)c3ccccc3[N+](=O)[O-])CC2)cc1	8
CCn1c(=O)c(-c2nc3ccccc3[nH]2)c(O)c2ccccc21	26
NS(=O)(=O)c1ccc(CCNC(=O)CCCCCn2c(=S)[nH]c3ccc(Br)cc3c2=O)cc1	18
CN(C)S(=O)(=O)N(CC(=O)NCCSCc1ccccc1)c1ccccc1	13
CCOC(=O)NC(=O)/C(C#N)=C\Nc1ccc(Cl)cc1Cl	10
COCCCn1c(SCC(=O)O)nc2cc(OC)c(OC)cc2c1=N	20
O=C(O)/C(=C1\OC(=O)c2ccccc21)c1ccccc1	12
CCc1ccccc1NC(=O)c1cccc(NC(=O)/C=C/c2ccco2)c1	-1
COC(=O)c1ccc2c(=O)n(Cc3ccc(C(=O)NC(C)C)cc3)c(=S)[nH]c2c1	9
CCC(=O)N(Cc1ccc(S(N)(=O)=O)cc1)C1CC(=O)N(c2ccccc2)C1=O (stereo not given)	12
CC1CCC(C(=O)NNC(=O)c2cc(-c3ccco3)[nH]n2)CC1 (stereo not given)	5
COc1cc(NC(=O)CSc2nc3ccccc3n2-c2ccccc2)c(C)cc1[N+](=O)[O-]	7
Cc1ccc(Oc2nc3ccccn3c(=O)c2/C=C(\C#N)C(=O)NC2CCS(=O)(=O)C2)cc1 (stereo not given)	23
The results go on:
SMILES	Calb biofilm kill
CCOC(=O)N1CCN(c2ccc(Cl)cc2)CC1	12
O=C(NNC(=S)Nc1ccc(F)c(Cl)c1)C1CC1	8
FC(F)(F)c1cc(-c2cccs2)nc2cc(-c3cccs3)nn12	16
CC1(C)Cc2nc3oc4c(SCC(N)=O)ncnc4c3cc2CO1	11
O=C1CCCN1c1nccs1	4
CN(C)CCCNCCCNC(=O)/C(=N\O)c1ccccc1	17
O=C(Nc1nc2ccccc2s1)c1cc(-c2ccco2)nc2ccccc12	9
O=C(Nc1ccccc1C(=O)N1CCCC1)C1COc2ccccc2O1 (stereo not given)	8
COc1ccc(-c2cnnc(N/N=C/c3c(C)nn(-c4ccccc4)c3Cl)n2)cc1	16
COc1ccc(C/C(C)=N/NC(=S)Nc2ccc(Cl)cc2)cc1	43
O=C(CSc1nnnn1C1CCCC1)NCc1cccs1	-3
C=CCNCCOc1c(C)cc(C)cc1Cl	6
O=C(/C=C/c1c[nH]c2ccccc12)c1cccc2ccccc12	4
CCN(C(=O)CN1CCN(Cc2ccccc2)CC1)c1c(N)n(Cc2ccccc2)c(=O)[nH]c1=O	8
c1ccc(-c2nnsc2-c2nc3ccccc3[nH]2)cc1	5
O=C(CN(c1ccc(Br)cc1)S(=O)(=O)c1ccc(Cl)c([N+](=O)[O-])c1)NCCc1ccccc1	10
O=[N+]([O-])c1ccc(SCc2ccco2)cc1N1CCOCC1	5
Cc1c(N2C(=O)C3C4C=CC(C5CC45)C3C2=O)c(=O)n(-c2ccccc2)n1C (stereo not given)	25
CCCOC1CCCN(C(=O)CCc2nnc(CCCCc3ccccc3)o2)C1 (stereo not given)	17
Cc1ccc(S(=O)(=O)C2C(=O)N(C)C3(C)CC2c2ccccc2O3)cc1 (stereo not given)	12
Cc1cccc(C)c1C(OCCN(C)C)C1CCCCC1 (stereo not given)	10
Cc1ccc(S(=O)(=O)N2CCCCC2)cc1NC(=O)CCOc1ccccc1	11
Cc1ccc(C(=O)c2cc([N+](=O)[O-])ccc2N2CCCCC2)cc1C	11
Cc1ccccc1N=C1SC(CC(=O)Nc2ccc3ccccc3c2)C(=O)N1Cc1ccccn1 (stereo not given)	11
CC1CCCN(CCOc2ccc3ccccc3c2Br)C1 (stereo not given)	11

Nothing new here: entries from further up.
SMILES	Calb biofilm kill
Cc1ccc(C)c(-n2cc(CN3CCCN(C=O)CC3)c(-c3ccccc3)n2)c1	13
CCOC(=O)N1CCN(C(=O)c2cn(CC)c3ccc(S(=O)(=O)N4CCCCC4)cc3c2=O)CC1	13
CCN(CC)C(=O)CSc1nc2cc3c(cc2c(=O)n1CCCC(=O)NCCc1ccc(OC)c(OC)c1)OCO3	19
CCCCN(C)C(=O)CCCc1c[nH]c2ccccc12	8

(next part)
SMILES	Calb biofilm kill
O=[N+]([O-])c1ccc(Nc2nc(Cl)nc(NCCO)n2)cc1	8
COc1cc(/C=N/NC(=O)c2cc(C3CC3)[nH]n2)ccc1O	15
O=C(Cc1ccccc1)N1CCN(S(=O)(=O)c2cccc([N+](=O)[O-])c2)CC1	17
O=c1c2ccccc2nc2n1C(CBr)CS2 (stereo not given)	-5
Cc1ccc(S(=O)(=O)Nc2ccccc2C(=O)OC(C)C(=O)Nc2ccc3ccccc3c2)cc1[N+](=O)[O-] (stereo not given)	7
O=C(CN1C(=O)C2C3CC(C(Br)C3Br)C2C1=O)OCC(=O)c1cccc([N+](=O)[O-])c1 (stereo not given)	5
Cc1cc(NC(=O)CN2C(=O)NC3(CCCCCC3)C2=O)no1	7
COc1ccc(-c2cc(C(=O)Nc3c(C)n(C)n(-c4ccccc4)c3=O)no2)cc1OC	17
O=C(NNc1cc(N2CCOCC2)nc(N2CCOCC2)n1)c1ccc([N+](=O)[O-])cc1	18
O=C(Cc1ccccc1)NCC(=O)N/N=C/c1cccnc1	5
O=C(c1ccc(-c2ccccc2)cc1)c1ccc([N+](=O)[O-])cc1	9
CC(C)(C)c1nc2c(Br)cc(Br)cc2c(=O)o1	18
CCC(C)NC(=O)c1nc2c(nnn2Cc2ccccc2Cl)c(=O)[nH]1 (stereo not given)	9
CSc1ccccc1-c1n[nH]c(=S)o1	33
CCOC(=O)C1CCC(CN(Cc2ccccc2C)S(=O)(=O)c2ccc([N+](=O)[O-])cc2)CC1 (stereo not given)	14
CCOC(=O)c1sc2nc(C)nc(Nc3ccc(OC)c(OC)c3)c2c1C	-6
Cc1ccc(CSCC(=O)N2CCN(Cc3ccc4c(c3)OCO4)CC2)cc1	11
CN1CCN(c2nc(-c3ccccc3)ncc2S(=O)(=O)c2ccccc2)CC1	15
CC(=O)NC1=NN(C(C)=O)C(c2cccs2)S1 (stereo not given)	7
CCC(=O)Nc1ccccc1Sc1ncnc2scc(-c3ccccc3)c12	12
CCN(C(=O)Cc1nc(N)n[nH]1)C1(C(=O)Nc2ccccc2)CCCCC1	10
C=CCc1ccc(OCC(O)CN2CCN(Cc3ccccc3)CC2)c(OC)c1 (stereo not given)	7
O=C(NNC(=O)c1cccc(-n2cnnn2)c1)c1ccccc1	6
Cc1cc(C)c2c(N=NN3CCOCC3)[nH]nc2n1	12
O=C(Cc1cc(=O)[nH][nH]1)N/N=C/c1cccc2ccccc12	6

A draw from above in order of SMILES length, smallest number first:
SMILES	Calb biofilm kill
O=c1c2ccccc2nc2n1C(CBr)CS2 (stereo not given)	-5
COc1cc(/C=N/NC(=O)c2cc(C3CC3)[nH]n2)ccc1O	15
O=C(Cc1cc(=O)[nH][nH]1)N/N=C/c1cccc2ccccc12	6
CCC(C)NC(=O)c1nc2c(nnn2Cc2ccccc2Cl)c(=O)[nH]1 (stereo not given)	9
O=C(c1ccc(-c2ccccc2)cc1)c1ccc([N+](=O)[O-])cc1	9

Returning to the listing, repeating the two entries before the break.
SMILES	Calb biofilm kill
Cc1cc(C)c2c(N=NN3CCOCC3)[nH]nc2n1	12
O=C(Cc1cc(=O)[nH][nH]1)N/N=C/c1cccc2ccccc12	6
Cc1ccc(S(=O)(=O)N/N=C/c2c(F)cccc2Cl)cc1	22
C/C(=N\NC(=O)c1cccc(N/N=C(\C)c2ccco2)c1)c1ccco1	32
Cc1ccc2cc(/C=C(\C#N)C(N)=O)c(N3CCCCC3)nc2c1	14
FC(F)(F)c1ccccc1NC(=S)NC1CCN(Cc2ccccc2)CC1	5
CCc1ccc(N2CC(C(=O)N/N=C/c3cc([N+](=O)[O-])ccc3O)CC2=O)cc1 (stereo not given)	1
CN(Cc1ccccc1)CC(O)COc1ccc(CNCCc2ccncc2)cc1 (stereo not given)	22
CC1Cc2ccccc2N1S(=O)(=O)c1cnc(Cl)c(Cl)c1 (stereo not given)	7
Cc1ccc(-c2csc3ncnc(Oc4ccc5c(C)cc(=O)oc5c4)c23)cc1	6
O=C(Nc1ccc(Cl)cc1)N(Cc1nc2ccccc2c(=O)[nH]1)Cc1cccs1	15
C#CCOCCOCCOCCNc1nc(N2CCN(C(=O)[C@H](C(C)C)n3cc(CCO)nn3)CC2)nc(N2CCN(C(=O)[C@H](CCCCN)n3cc(CCCC)nn3)CC2)n1	3
Cc1nc(N2CCN(c3ccccc3)CC2)[nH]c(=O)c1CCC(C)C	12
CCOC(=O)c1sc2nc(C)cc(-c3ccccc3)c2c1N	7
O=C(N/N=C/c1cccnc1)c1cccc(S(=O)(=O)N2CCCC2)c1	9
c1ccc(CN2CCN(CCOCCOc3cccc4ccccc34)CC2)cc1	13
Cc1ccc(N2C(=O)C3NN=C(C(=O)OCc4ccccc4)C3C2=O)cc1 (stereo not given)	9
COc1ccc(/C=C/C(=O)NCCSCc2ccco2)cc1	9
O=S(=O)(c1ccc(Cl)cc1)N1CCN=C1SCc1cccc(Cl)c1	14
COc1ccccc1NC(=O)c1ccc(NC(=O)CN2CCN(C(=O)c3ccco3)CC2)cc1	12
COc1ccccc1NS(=O)(=O)c1ccc(Cl)cc1	17
COc1cc(CC(=O)OCC(=O)Nc2cc([N+](=O)[O-])ccc2Cl)cc(OC)c1OC	10
Cn1ccc(C(=O)N/N=C/c2ccccc2[N+](=O)[O-])n1	8
O=C(c1cccc(Br)c1)c1conc1C(=O)c1ccco1	7
CCOC(=O)c1ccc(NNC(C)=O)c([N+](=O)[O-])c1	19
Brc1cccc(CNc2nc3ccccc3n2CCN2CCOCC2)c1	-4
CC1CCN(C(=O)/C=C/c2ccc(C(C)(C)C)cc2)CC1	13
(listing goes on)
SMILES	Calb biofilm kill
Cc1nnc(SCC(=O)Nc2ccc(Cl)cn2)[nH]c1=O	11
COc1ccc(C(=O)C2CCCN(Cc3ccc4nonc4c3)C2)cc1OC (stereo not given)	16
CC(OC(=O)c1cc2c(ccc3ccccc32)oc1=O)c1nc2ccccc2s1 (stereo not given)	8
Nc1nc2ccc(OC(F)(F)F)cc2s1	-3
CCO[C@@H]1OC(C(=O)NCc2ccccc2)=C[C@H](C)[C@H]1CCCO	18
CC(C)N1CCc2c(sc(NC(=O)CCc3ccccc3)c2C(N)=O)C1	3
CCc1ccc(NC(=O)CN(N=Nc2nonc2C)c2nonc2C)cc1	-3
COc1ccc2nc(C)cc(SCC(=O)N/N=C/c3ccccc3)c2c1	-2
C/C=C(/C)C(=O)Nc1cccc(C2=NOC3(C2)C[C@@H](C(N)=O)N(C(=O)CC)C3)c1 (stereo not given in full)	17
O=c1cc(N2CCCCC2)c(-c2ccccc2)nn1Cc1ccc(F)cc1	5
O=c1c2c3nc4ccccc4nc3n(/N=C/c3ccccn3)c2ncn1-c1ccccc1	15
CCOc1ccc(CCNC(=O)COC(=O)c2nc3nc(C)cc(C)n3n2)cc1OCC	22
CCCC(c1nnnn1C(C)(C)C)N1CCN(c2ccccc2)CC1 (stereo not given)	18
CCOC(=O)C(C)n1nc(-c2ccccc2)c2ccccc2c1=O (stereo not given)	9
CN1CCN(c2ncc(CN3C(=O)c4ccccc4C3=O)s2)CC1	13
CC(=O)NC1(c2nnnn2CCOC(=O)Nc2ccc(Cl)cc2)CCCC1	11
O=S(=O)(c1ccc(NC(=S)NC2CC2)cc1)N1CCOCC1	11
Cc1ccc(N/N=C(\C#N)C(=N)N2CCCCC2)cc1	16
C(=N\N1CCN(c2ccccn2)CC1)/c1ccccn1	15
S=C(Nc1cccc(Cl)c1)N1CCN(Cc2ccccc2)CC1	20
Cc1ccc(-c2ccc(/C=N/NC(=O)c3ccccc3O)o2)cc1	-10
N#CC1=C(N)n2c(s/c(=C\c3cccs3)c2=O)=C(C#N)C1c1cccs1 (stereo not given)	-4
CN(C)CCCN1c2ccccc2Sc2ccc(C(F)(F)F)cc21	10
Nc1nc(CCl)nc(N(c2ccccc2)c2ccccc2)n1	20
O=C(Cc1ccccc1)NCC(=O)OCC(=O)c1ccc(Cl)c([N+](=O)[O-])c1	12
Cc1ccc(/C([O-])=C(/C(=S)NCCN2CCOCC2)[n+]2ccccc2)cc1[N+](=O)[O-]	20
O=C(CSc1ccc2ccccc2c1)Nc1nc2ccccc2[nH]1	18
CN(C)S(=O)(=O)c1cccc(NC(=O)COC(=O)c2c[nH]c(=O)[nH]c2=O)c1	9
